From PubChem BioAssay
eIF4H FP inh = human eIF4H binding inhibitors, primary screen, translation initiation inhibitor project, biochemical, uHTS, fluorescence polarization. 290,000 tested, 0.94% active. AID 2012, 2009. inhibition, % at 35 µM. Eukaryotic translation initiation factor 4H (Homo sapiens), Q15056. eIF4H fluorescence polarization binding assay;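 active means 50% or more with normal probe brightness, or confirmed in later tests; about a fifth of its hits are not listed in these tables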;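 further: calls also rest on retests at 20 µM and on dose response follow-up; 0% = protein and probe with vehicle and 100% = probe without protein; strong numbers were not always called active; many hits fall short of the cut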
MT1-MMP act inh = blockers of MT1-MMP proenzyme processing, primary screen, HT1080 RFP-PRO-GFP cells, GFP/RFP fluorescence. GFP/RFP ratio change, % at 20 µM. Matrix metalloproteinase-14 (Homo sapiens), P50281. GFP/RFP ratio fluorescence, overnight; percent of plate control window, DMSO zero. AID 651647, 2012. 360,000 tested, 0.061% active;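 active means GFP/RFP ratio change of at least 30% with cell ATP level not reduced by more than half and red fluorescence within 50% of control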; further: strong numbers were not always called active
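Assay system: RFP-PRO-GFP reporter HT1080 cells; read-out basis: GFP/RFP fluorescence ratio; benchmarks: DMSO wells and RFP-L50D-GFP cells; doses: 20 µM single dose, 1% DMSO; schedule: overnight cell settling, then overnight compound exposure, 37 °C, 5% CO2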
CSC inhib = cancer stem cell viability inhibitors, primary screen, luminescence; cancer stem cell-like cells viability; inhibition, % at 7.5 µM; 300,000 tested, 1.1% active;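 active means mean at 75% or more and at least half the replicates too; tested in HMLE shEcad cells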;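 further: 0% = median of negative and 100% = median of positive control wells; the first replicate is given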
Rce1 inhib = yeast Rce1p protease inhibitors, primary screen, biochemical, fluorescence, cell-free homogeneous | CAAX prenyl protease 2 (Saccharomyces cerevisiae (strain ATCC 204508 / S288c)), Q03530 | yeast membranes, quenched prenylated peptide cleavage fluorescence | calls only | 290,000 tested, 0.27% active | AID 2563, 2010;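 active means fall in fluorescence gain of 50% or more versus controls, with final raw signal at or below 3038400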;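 further: plate controls were neutral control wells for no effect and wells lacking membranes for full effect; tested at 10 µM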
PABP FP inh = PABP poly(A) RNA binding inhibitors, primary screen, biochemical, fluorescence polarization, uHTS; Polyadenylate-binding protein 1 (Homo sapiens), P11940; inhibition, % at 35 µM; 290,000 tested, 1% active;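 active means 50% or more with normal probe brightness, or confirmed in later tests; about a fifth of its hits are not listed in these tables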;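 further: calls also rest on retests at 20 µM and on dose response follow-up; controls were probe without protein and protein plus probe with vehicle; some compounds called inactive have numbers as strong as hits; many hits fall short of the cut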
Target sequence (P11940 whole entry, looked up): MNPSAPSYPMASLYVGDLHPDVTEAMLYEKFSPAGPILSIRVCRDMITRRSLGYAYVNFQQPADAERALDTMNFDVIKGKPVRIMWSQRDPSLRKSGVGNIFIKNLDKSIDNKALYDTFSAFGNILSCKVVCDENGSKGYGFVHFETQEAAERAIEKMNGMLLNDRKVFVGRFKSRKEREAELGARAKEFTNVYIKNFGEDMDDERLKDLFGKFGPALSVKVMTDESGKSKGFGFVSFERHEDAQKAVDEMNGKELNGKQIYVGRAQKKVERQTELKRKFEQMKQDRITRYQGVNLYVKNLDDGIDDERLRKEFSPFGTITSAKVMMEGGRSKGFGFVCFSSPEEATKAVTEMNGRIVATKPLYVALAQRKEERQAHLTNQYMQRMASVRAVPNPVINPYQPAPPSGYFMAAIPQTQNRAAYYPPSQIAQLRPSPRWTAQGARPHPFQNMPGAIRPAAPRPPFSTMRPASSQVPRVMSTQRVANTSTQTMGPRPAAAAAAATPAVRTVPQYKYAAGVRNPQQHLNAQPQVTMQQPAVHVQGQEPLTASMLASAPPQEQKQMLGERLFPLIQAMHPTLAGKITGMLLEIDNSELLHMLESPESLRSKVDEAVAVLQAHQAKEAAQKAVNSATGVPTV
Env fusion inh = inhibitors of HIV-1 Env-driven cell-cell fusion, primary screen, HeLa-JRFL effector, CEM21 target cells, luciferase | 360,000 tested, 1.1% active | inhibition, % at 12.3 µM;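 active means mean replicate inhibition score of at least 50 and every replicate individually at or above 50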;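 further: 0% = plate neutral controls and 100% = maraviroc near 300 nM; one replicate is shown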
Yeast UUG start = modulators of yeast start codon fidelity, primary screen, whole organism, S. cerevisiae, single point, plate reader | S. cerevisiae UUG-firefly luciferase reporter, luminescence/redox ratio | activity score, % at 18.7 µM | 350,000 tested, 0.13% active;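 active means replicate mean at a twofold rise or more, about +100% in these data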;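 further: firefly luciferase made from a UUG start codon reports start codon fidelity; reporter light over untreated wells divided by growth signal over untreated wells; some hits fall short of that in this replicate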
MT1-MMP act inh RFP = recorded beside MT1-MMP act inh, whose call it bears; RFP signal change, %; measured here: RFP expression control read;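 0 = vehicle wells; hits needed this value within 50% of zero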
* = called active by the depositor; i = inactive; nt = not tested or not shown; & = joins results of further samples; [ ] = another dose, or the depositor's remark.

Sequence of screens: eIF4H FP inh | MT1-MMP act inh | MT1-MMP act inh RFP | CSC inhib | Rce1 inhib | PABP FP inh | Env fusion inh | Yeast UUG start
CN(C)c1nnnn1-c1ccc(Cl)cc1Cl
 : -2 | -1 | -1 | -16 | i | 8 | 13 | nt
COC(=O)c1c(C)cc(O)cc1O
 : nt | 2 | 5 | -9 | i | nt | nt | -13
CCCC(=O)OCCNC(=O)c1cc2ccccc2oc1=O
 : -4 | 11 | 6 | -2 | i | -11 | nt | 0
CC(C)C1C(=O)N(Cc2cn(CCC3OCCCO3)nn2)CCS(=O)(=O)N1Cc1ccc(-c2cccc(N(C)C)c2)cc1 (stereo unspecified)
 : nt | 2 | 2 | nt | nt | nt | 11 | -8
CC(Sc1nc2sccc2c(=O)n1-c1ccccc1)C(N)=O (stereo unspecified)
 : 1 | -4 | -1 | -3 | i | 12 | -8 | nt
CCN1C(=O)[C@H]2[C@H]3CN=C(SCc4ccc(C#N)cc4)N3[C@@](Cc3ccccc3)(C(=O)OC)[C@H]2C1=O
 : nt | -2 | 1 | nt | nt | nt | -16 | -8
CC(C)N=C(NC#N)SCc1ccc(Br)cc1
 : 6 | 0 | -5 | -4 | i | 5 | -41 | -12
Cc1ccccc1C(=O)NCCCCc1ccccc1
 : 5 | -1 | 1 | -5 | i | -1 | -1 | 4
COc1cccc(C2(CSc3nnc(-c4cc(OC)c(OC)c(OC)c4)o3)OCCO2)c1
 : -9 | 5 | -4 | -5 | i | -3 | nt | 11
CCCCC1C2C(=O)N(c3ccccc3)C(=O)C2ON1c1ccccc1 (stereo unspecified)
 : -2 | 5 | 3 | -10 | i | 3 | -9 | -1
COc1ccccc1-c1nc(-c2ccc(Br)o2)no1
 : -4 | -5 | 3 | 12 | i | -4 | -281 | -15
CCN(CC)Cc1ccccc1CNC(=O)c1cccc(S(=O)(=O)Nc2ccc3c(c2)OCO3)c1
 : nt | 0 | -4 | 5 | nt | nt | nt | 2
Cn1c(C(=O)N2CCCC(C(=O)NCCc3ccccc3)C2)cc2sccc21 (stereo unspecified)
 : 0 | -1 | -7 | -11 | i | 11 | nt | nt
CCCCS(=O)c1c(O)c2ccccc2[nH]c1=O (stereo unspecified)
 : 8 | -4 | 1 | 4 | i | 14 | -11 | nt
Cc1ccc(S(=O)(=O)NCc2ccccc2)cc1C(=O)NC1CCC(C)CC1 (stereo unspecified)
 : 5 | 2 | -6 | -11 | i | -1 | -26 | 5
COC(=O)CCC(=O)OC1(C)C(=O)C2=CN(CCCCO)C(c3ccc(OC)cc3)=CC2=C(Br)C1=O (stereo unspecified)
 : 28 | nt | nt | -2 | i | 23 | nt | nt
Cc1nnc(SC(C)C)n(N)c1=O
 : 1 | -1 | 0 | -3 | nt | -13 | -33 | -7
O=C(/C=C/c1ccco1)Nc1cccnc1
 : 28 | -8 | 6 | -9 | i | 23 | -9 | nt
Cc1c(Br)ccc(NC(=O)Cn2nc(-c3cccs3)ccc2=O)c1C
 : 3 | 1 | 1 | 5 | i | -16 | -1 | -8
Cc1nn(C(C)C(=O)NNC(=S)Nc2ccc(F)cc2)c(C)c1[N+](=O)[O-] (stereo unspecified)
 : 7 | 5 | 1 | nt | i | 10 | 5 | nt
Cc1ccc2nc(NC(=O)CN3CCOCC3)sc2c1
 : -8 | 5 | -2 | 6 | i | -2 | -66 | -9
CCn1c(C)nc2cc(C(=O)N/N=C/c3ccc(N4CCOCC4)cc3)ccc21
 : -14 | 3 | 6 | 0 | i | -12 | 21 | nt
Cc1c(NC(=O)N2CCCCCC2)c(=O)n(-c2ccccc2)n1C
 : -4 | 1 | 4 | -20 | i | -2 | nt | 0
COc1ccc(CC(=O)Nc2c(C(N)=O)oc3ccccc23)cc1
 : 2 | 4 | 1 | -10 | i | -10 | -7 | -7
Cc1cc2ccccn2c1C(=O)c1ccc(F)cc1
 : -7 | 3 | 0 | 41 | i | -4 | -11 | -12
COCCC(=O)N1CCC(Oc2ccc(C(=O)N3CCC(N(C)C)C3)cc2)CC1 (stereo unspecified)
 : 3 | -1 | 0 | -8 | i | -3 | -11 | -5
Cc1cc(C)c(NC(=O)c2cc3c(nc4sccn43)s2)c(C)c1
 : -1 | 0 | 0 | 1 | i | 19 | -34 | -21
CC1CC(C)CN(C(=O)CSc2nnc(CSc3ncccn3)n2C)C1 (stereo unspecified)
 : -4 | 0 | 3 | nt | i | -5 | 2 | -21
O=C(Cc1cccc(NC(=O)C2CCCN(C(=O)C3CCC3)C2)c1)Nc1cccc(C(=O)N2CCOCC2)c1 (stereo unspecified)
 : nt | 3 | 5 | nt | nt | nt | 27 | 13
C=CCn1c(SCC(=O)N(C)C2CCS(=O)(=O)C2)nc2ccccc2c1=O (stereo unspecified)
 : -5 | 0 | 1 | -1 | i | 8 | 0 | nt
Cc1ccc(SCc2cc(=O)[nH]c(N3CCN(Cc4ccc5c(c4)OCO5)CC3)n2)cc1
 : -3 | -17 | -32 | 1 | i | -3 | nt | -12
Cn1cc(Br)c(C(=O)Nc2nccs2)n1
 : 1 | -1 | 1 | -22 | i | 3 | -53 | -24
Cn1c(=O)c2cc(NC(=S)NCc3ccccc3F)ccc2n1Cc1ccccc1
 : nt | 7 | -9 | nt | nt | nt | 27 | -42
CC(=O)c1ccc(-n2nnnc2SCC(=O)NNC(=O)c2ccco2)cc1
 : 4 | 1 | -4 | -22 | i | -1 | nt | -13
COc1ccc(N(C)S(=O)(=O)c2ccc3c(c2)CCN3C(=O)C2CC2)c(OC)c1
 : -17 | nt | nt | 12 | i | 0 | 17 | -12
CC(O)[C@H]1CC[C@H]2[C@@H]3CC[C@H]4C[C@@H](O)CC[C@]4(C)[C@H]3/C(=N/O)C[C@]12C (stereo partly specified)
 : nt | 2 | -1 | -3 | i | nt | -3 | 15
CC(=O)NC(Cc1c[nH]c2ccccc12)C(=O)OCC(=O)Nc1ccc2c(c1)OCO2 (stereo unspecified)
 : -5 | -2 | -1 | -6 | i | 10 | nt | -14
CCn1c(SCC(=O)c2ccccc2)nnc1-c1cc2cc(Br)ccc2o1
 : 0 | 2 | -12 | 67 | i | 15 | nt | -14
CCOc1ccc(NS(=O)(=O)c2ccc(SC)cc2)cc1
 : 0 | 10 | 1 | 11 | i | -8 | nt | -14
COc1ccc(N(C(C)C(=O)N2CCC(Cc3ccccc3)CC2)S(C)(=O)=O)cc1 (stereo unspecified)
 : 4 | -5 | -27 | -7 | i | 2 | 25 | 9
Cc1[nH]c2ccccc2c1/C=N/Nc1ccc(F)cc1F
 : 15 | nt | nt | 49 | nt | 7 | nt | nt
Fc1ccccc1C1CCN(Cc2nc(CC3CC3)no2)C1 (stereo unspecified)
 : 3 | 0 | 3 | 8 | i | 6 | -15 | nt
O=C(c1ccccc1)c1nn(-c2cccc(Cl)c2)c2nc(-c3ccccc3)cc(=O)n12
 : 9 | -1 | 3 | -5 | i | 3 | nt | -19
CCc1ccc(O)c(N=Cc2ccccc2O)c1
 : 20 | -39 | 1 | -4 | i | 31 | nt | nt
CN(Cc1ccccc1F)C(=O)CN1c2cccc3cccc(c23)S1(=O)=O
 : nt | 2 | -2 | -5 | i | nt | 2 | -17
COCCN(Cc1ccccc1)P(=O)(O)c1ccccc1OCC(=O)O
 : 1 | 0 | 3 | -7 | i | 5 | nt | -5
Cc1cccc(N(C2C=CS(=O)(=O)C2)S(=O)(=O)c2ccccc2)c1 (stereo unspecified)
 : -1 | -2 | 2 | -7 | i | 2 | -19 | -17
Cc1ccc(-n2nc3c(=O)n(CC(=O)NCc4ccccc4)nc(C)c3c2C)cc1
 : -4 | 10 | -11 | -10 | i | 6 | 2 | 1
CN1CCN(C(=O)C2C3C=CC(C3)C2C(=O)O)CC1 (stereo unspecified)
 : -3 | -3 | 1 | -26 | i | 3 | nt | nt
O=c1cc(CSc2nnnn2-c2ccccc2)nc(Nc2ccc(F)cc2)[nH]1
 : 12 | -2 | -13 | 9 | i | 4 | -67 | 1
O=C1/C(=N\S(=O)(=O)c2cccs2)C([n+]2ccccc2)=C([O-])c2ccccc21
 : 12 | -9 | -12 | 29 | i | 11 | 9 | nt
O=C(NCCCc1nc2ccccc2[nH]1)c1cccs1
 : -1 | 2 | 3 | -12 | i | -2 | 0 | -10
Cc1nc(N2CCOCC2)c2oc3ccccc3c2n1
 : -4 | -8 | -2 | 3 | i | 9 | -144 | -3
Cc1ccc(NC(=O)c2ccc(Cl)cc2[N+](=O)[O-])nc1
 : 4 | -4 | -10 | 44 | i | 14 | -143 | nt
CSc1ccccc1OCc1cc(C(=O)N2CCN3CCCC3C2)no1 (stereo unspecified)
 : -8 | 2 | 2 | 0 | i | -2 | 4 | 3
CN(C)S(=O)(=O)c1cc([N+](=O)[O-])ccc1N1CCCCCC1
 : -4 | 2 | -1 | 0 | i | -6 | -5 | -7
Cc1ccc(C(=O)OCC(=O)Nc2cccc(Cl)c2C)c(O)c1
 : -4 | 8 | 1 | 0 | i | 0 | 7 | -2
CNc1nc(Cl)c(SC)c(NC2CCCCC2)n1
 : 2 | 3 | -3 | 2 | i | -8 | -3 | nt
Cc1c(NC(=O)CCCOc2ccccc2)cccc1[N+](=O)[O-]
 : 10 | -2 | 1 | 3 | i | 9 | nt | -5
CC(C)(C)c1ccc(C(=O)NC(=S)Nc2sc3c(c2C#N)CCC3)cc1
 : 39 | 5 | 7 | 64 | i | -6 | 14 | nt

Later entries.
Sequence of screens: eIF4H FP inh | MT1-MMP act inh | MT1-MMP act inh RFP | CSC inhib | Rce1 inhib | PABP FP inh | Env fusion inh | Yeast UUG start
COc1ccc(NS(=O)(=O)c2ccc(NC(=S)NC(=O)/C=C/c3ccc(C)cc3)cc2)nn1
 : -5 | -2 | -12 | 9 | i | -9 | 10 | nt
CCOC(=O)c1c(-c2ccc(-c3ccccc3)cc2)csc1NC(=O)CCC(=O)O
 : -16 | 3 | 0 | 27 | i | 8 | -9 | -1
CC(=O)Nc1sc2c(c1C(N)=O)CCN(Cc1ccccc1)C2
 : 16 | nt | nt | -5 | nt | 23 | -2 | nt
O=c1cc(C(F)(F)F)[nH]c2ccccc12
 : -9 | -1 | -7 | 7 | i | -10 | 2 | nt
COc1ccc(-c2nc(CS(=O)CC(=O)NCCN3CCCCC3C)c(C)o2)cc1OC (stereo unspecified)
 : -5 | -6 | 0 | 2 | i | -6 | -3 | 2
COCC(=O)Nc1nnc(C2CCCCC2)s1
 : -2 | 4 | 6 | -2 | nt | 4 | -79 | 4
COc1ccc(N(C(=O)CNC(=O)c2cccs2)C(C(=O)NCC2CCCO2)c2ccccc2)c(OC)c1 (stereo unspecified)
 : 3 | -2 | 3 | -1 | i | -4 | 2 | 1
N/C(=N\NS(=O)(=O)c1cc(C(F)(F)F)cc(C(F)(F)F)c1)c1ccccn1
 : -7 | 3 | -2 | 8 | i | -2 | 1 | -28
CCO[C@H]1OC(C(N)=O)=C[C@@H](c2csc3ccccc23)[C@@H]1CCCO
 : -14 | 3 | 1 | -9 | i | -4 | -8[16.7 µM] | 6&-18

Whole records, looked up by structure.
`COc1ccc(-c2nc(CS(=O)CC(=O)NCCN3CCCCC3C)c(C)o2)cc1OC` (stereo unspecified) is listed with eIF4H FP inh: -5; MT1-MMP act inh: -6; MT1-MMP act inh RFP: 0; CSC inhib: 2; Rce1 inhib: i; PABP FP inh: -6; Env fusion inh: -3; Yeast UUG start: 2
`COCC(=O)Nc1nnc(C2CCCCC2)s1` is listed with eIF4H FP inh: -2; MT1-MMP act inh: 4; MT1-MMP act inh RFP: 6; CSC inhib: -2; Rce1 inhib: nt; PABP FP inh: 4; Env fusion inh: -79; Yeast UUG start: 4
